Screening results deposited in PubChem BioAssay by several laboratories.
CSC inhib: cancer stem cell viability inhibitors, primary screen, luminescence | cancer stem cell-like cells viability | inhibition, % at 7.5 µM | 300,000 tested, 1.1% active;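 active = mean at 75% or more and at least half the replicates too; inconclusive = mean and replicates disagree; tested in HMLE shEcad cells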;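 note: 0% = median of negative and 100% = median of positive control wells; the first replicate is given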
eIF4H FP inh: human eIF4H binding inhibitors, primary screen, translation initiation inhibitor project, biochemical, uHTS, fluorescence polarization; Eukaryotic translation initiation factor 4H (Homo sapiens), Q15056; eIF4H fluorescence polarization binding assay; inhibition, % at 35 µM; 290,000 tested, 0.94% active; AID 2012, 2009;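 active = 50% or more with normal probe brightness, or confirmed in later tests; inconclusive = above 50% with abnormal brightness, or retests that disagree; inactive = below 50% or failed in later tests; about a fifth of its hits are not listed in these tables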;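 note: calls also rest on retests at 20 µM and on dose response follow-up; 0% = protein and probe with vehicle and 100% = probe without protein; strong numbers were not always called active; many hits fall short of the cut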
HIV Env fusion: inhibitors of HIV-1 Env-driven cell-cell fusion, primary screen, HeLa-JRFL effector, CEM21 target cells, luciferase; inhibition, % at 12.3 µM; 360,000 tested, 1.1% active;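 active = mean replicate inhibition score of at least 50 and every replicate individually at or above 50; inconclusive = only one of the two criteria met; inactive = mean below 50 and not all replicates reaching 50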;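 note: 0% = plate neutral controls and 100% = maraviroc near 300 nM; one replicate is shown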
Yeast UUG start: modulators of yeast start codon fidelity, primary screen, whole organism, S. cerevisiae, single point, plate reader | 350,000 tested, 0.13% active | S. cerevisiae UUG-firefly luciferase reporter, luminescence/redox ratio | activity score, % at 18.7 µM;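 active = replicate mean at a twofold rise or more, about +100% in these data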;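 note: firefly luciferase made from a UUG start codon reports start codon fidelity; reporter light over untreated wells divided by growth signal over untreated wells; some hits fall short of that in this replicate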
Rce1 inhib: yeast Rce1p protease inhibitors, primary screen, biochemical, fluorescence, cell-free homogeneous | 290,000 tested, 0.27% active | calls only | yeast membranes, quenched prenylated peptide cleavage fluorescence;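 active = fall in fluorescence gain of 50% or more versus controls, with final raw signal at or below 3038400; inconclusive = same 50% fall but final raw signal above 3038400; inactive = fall in fluorescence gain under 50%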;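 note: plate controls were neutral control wells for no effect and wells lacking membranes for full effect; tested at 10 µM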
Target sequence (Q03530 whole entry, looked up): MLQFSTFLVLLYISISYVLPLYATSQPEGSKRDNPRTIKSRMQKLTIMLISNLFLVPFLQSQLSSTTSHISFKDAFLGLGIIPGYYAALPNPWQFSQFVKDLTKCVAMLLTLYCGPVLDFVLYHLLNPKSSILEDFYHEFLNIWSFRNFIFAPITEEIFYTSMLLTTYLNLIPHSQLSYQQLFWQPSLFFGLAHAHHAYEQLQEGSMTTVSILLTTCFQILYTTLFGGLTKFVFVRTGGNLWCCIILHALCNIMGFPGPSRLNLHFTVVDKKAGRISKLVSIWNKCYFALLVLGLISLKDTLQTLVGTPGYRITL
PABP polyA inh: PABP poly(A) RNA binding inhibitors, primary screen, biochemical, fluorescence polarization, uHTS. 290,000 tested, 1% active. Polyadenylate-binding protein 1 (Homo sapiens), P11940. AID 2014, 2009. inhibition, % at 35 µM;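 active = 50% or more with normal probe brightness, or confirmed in later tests; inconclusive = above 50% with abnormal brightness, or retests that disagree; inactive = below 50% or failed in later tests; about a fifth of its hits are not listed in these tables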;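 note: calls also rest on retests at 20 µM and on dose response follow-up; controls were probe without protein and protein plus probe with vehicle; some compounds called inactive have numbers as strong as hits; many hits fall short of the cut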
Target sequence (P11940 whole entry, looked up): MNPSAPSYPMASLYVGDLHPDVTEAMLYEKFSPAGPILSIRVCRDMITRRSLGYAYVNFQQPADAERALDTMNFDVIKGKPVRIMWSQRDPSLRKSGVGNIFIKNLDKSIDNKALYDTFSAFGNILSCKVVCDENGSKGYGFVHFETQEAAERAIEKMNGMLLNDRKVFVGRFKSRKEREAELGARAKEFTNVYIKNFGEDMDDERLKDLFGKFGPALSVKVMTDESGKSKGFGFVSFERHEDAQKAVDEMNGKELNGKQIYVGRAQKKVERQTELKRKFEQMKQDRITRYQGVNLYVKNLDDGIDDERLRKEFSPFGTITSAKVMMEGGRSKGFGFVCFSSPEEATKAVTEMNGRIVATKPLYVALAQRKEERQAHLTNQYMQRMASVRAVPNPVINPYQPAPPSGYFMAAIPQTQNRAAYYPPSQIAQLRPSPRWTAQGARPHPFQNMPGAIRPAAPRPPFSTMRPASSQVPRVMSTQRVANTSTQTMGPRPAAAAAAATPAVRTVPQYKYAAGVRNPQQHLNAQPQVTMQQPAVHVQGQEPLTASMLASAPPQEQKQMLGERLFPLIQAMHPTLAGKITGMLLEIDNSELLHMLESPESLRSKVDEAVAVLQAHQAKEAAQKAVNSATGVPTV
MT1-MMP act inh: blockers of MT1-MMP proenzyme processing, primary screen, HT1080 RFP-PRO-GFP cells, GFP/RFP fluorescence | Matrix metalloproteinase-14 (Homo sapiens), P50281 | 360,000 tested, 0.061% active | GFP/RFP ratio fluorescence, overnight; percent of plate control window, DMSO zero | GFP/RFP ratio change, % at 20 µM;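 active = GFP/RFP ratio change of at least 30% with cell ATP level not reduced by more than half and red fluorescence within 50% of control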; note: strong numbers were not always called active
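Test system: HT1080 cells expressing an RFP-PRO-GFP fluorescent reporter construct / Compound dosing: single-point 20 µM compound, 1% DMSO / Schedule: cells overnight before dosing, compound overnight, 37 °C, 5% CO2 / Evaluation: GFP/RFP fluorescence ratio / Control set: DMSO and RFP-L50D-GFP cell wells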
MT1-MMP act inh RFP: second read-out of MT1-MMP act inh, no call of its own (marks repeat the call); RFP signal change, %; measured here: RFP expression control read;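 0 = vehicle wells; hits needed this value within 50% of zero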
* = called active by the depositor; i = inactive; ? = inconclusive; nt = not tested or not shown; + = active, no number.

structure	CSC inhib	eIF4H FP inh	HIV Env fusion	Yeast UUG start	Rce1 inhib	PABP polyA inh	MT1-MMP act inh	MT1-MMP act inh RFP
O=C1CSC(c2cn(-c3ccccc3)nc2-c2cc3ccccc3oc2=O)N1Cc1cccnc1 (stereo unspecified)	15	-3	6	-5	i	-6	-1	0
COc1cc2c(cc1OC)CN(C(=O)CSc1nc3[nH]ncc3c(=O)n1-c1ccccc1)CC2	2	-11	nt	nt	i	0	nt	nt
Cc1ccc(N2C(=O)CSC2c2c(F)cccc2Cl)cc1 (stereo unspecified)	-10	-6	11	-2	i	40	3	-2
CCCNC(=O)c1ccc(C2SCC(=O)N2Cc2ccccc2)cc1 (stereo unspecified)	-1	2	-2	nt	i	0	3	1
COc1ccc(NC(=O)c2cc3ccccc3cc2OC)cc1OC	-10	-1	2	nt	i	14	1	0
CCCC(=O)Nc1ccc(Cl)c(NC(=O)c2ccco2)c1	-8	4	nt	-4	i	-1	4	0
O=CN1CCCN(Cc2nc(Cc3ccccc3F)no2)CC1	-1	-10	-1	nt	i	0	0	4
Oc1ccc(C[C@H]2CNCCN2CCc2cccc3ccccc23)cc1	2	nt	17	-20	i	nt	-7	-4

structure	CSC inhib	eIF4H FP inh	HIV Env fusion	Yeast UUG start	Rce1 inhib	PABP polyA inh	MT1-MMP act inh	MT1-MMP act inh RFP
CN1C(=O)c2ccc(C(=O)Nc3ccc(Br)cn3)cc2C1=O	-9	-8	9	-7	i	-8	0	-1
CS(=O)(=O)c1ccccc1-c1nnc(NC(=O)COc2ccc(Cl)cc2)o1	2	nt	-1	2	i	nt	2	5
COc1ccc(C(=O)Cc2cc(OC)c(OC)cc2C(=O)c2ccccc2F)cc1OC	-15	?	2	nt	i	?	-3	-5
COCCN(CC1CCCN(C2Cc3ccccc3C2)C1)C(=O)c1ccc(C(C)=O)cc1 (stereo unspecified)	-14	-10	-5	-11	i	-12	-1	4
CCCCC(=O)N(C)c1c(C)nc2ccc(C(=O)N3CCN(C(C)=O)CC3)cn12	nt	nt	-37	-9	nt	nt	1	4
Cc1ccc(S(=O)(=O)N2CCCCC2)cc1NC(=O)COC(=O)Cc1c(F)cccc1Cl	-10	-2	-3	-18	i	-10	0	3
Cc1sc2nc(-c3ccc(Br)cc3)oc(=O)c2c1C	5	0	nt	-13	i	0	0	-1
Cc1nn(C)c(Oc2cccc(C(F)(F)F)c2)c1C=O	-12	-6	-2	nt	i	19	3	2

structure	CSC inhib	eIF4H FP inh	HIV Env fusion	Yeast UUG start	Rce1 inhib	PABP polyA inh	MT1-MMP act inh	MT1-MMP act inh RFP
O=C(O)CN1C(=O)c2ccc(Oc3cccc4c3C(=O)N(CC(=O)O)C4=O)cc2C1=O	-19	-1	-27	2	i	22	4	2
CS(=O)(=O)N1CCC(C(=O)Nc2ccccc2Br)CC1	-19	2	-14	-4	i	-8	1	4
NC(=O)C1CCN(C(=O)c2cc3ccccn3n2)CC1	2	-14	6	-11	i	0	2	3
NNC(=O)c1cc(S(=O)(=O)N2CCOCC2)c[nH]1	nt	nt	-5	-18	nt	nt	1	5
O=C(C(Cc1ccccc1)N1C(=O)c2ccccc2C1=O)N1c2ccccc2CCc2ccccc21 (stereo unspecified)	20	6	66*	nt	+	15	-15	-20
CC(=O)/C(=N\Nc1cccc(Cl)c1)Sc1nnc(-c2ccccc2)n1-c1ccccc1	-2	6	nt	nt	i	7	-4	-8
COc1ccc(-c2ccc(S(=O)(=O)N3CCCC3)cc2)cc1	8	2	-9	-7	i	25	0	-5
Cc1noc(NS(=O)(=O)c2ccc(NC(=O)CC(C)C)cc2)c1C	-11	0	-8	-13	i	3	-5	1

structure	CSC inhib	eIF4H FP inh	HIV Env fusion	Yeast UUG start	Rce1 inhib	PABP polyA inh	MT1-MMP act inh	MT1-MMP act inh RFP
Cn1c(=O)cc(Nc2ccccc2)c2c(=O)n(-c3ccccc3)c(=O)n(-c3ccccc3)c21	8	-1	19	0	i	-8	-9	-5
COc1ccc2[nH]c(C)c(C(=O)CN3CCN(C(=O)c4ccco4)CC3)c2c1	nt	-4	-1	-12	i	11	6	1
CCOC(=O)COc1cccc2c(=O)n(CC(=O)NCc3ccccc3)ccc12	53	0	-260	-23	i	-5	8	-5
O=C(NC1CCN(Cc2ccccc2)CC1)c1ccccc1F	-6	-2	nt	-38	i	-1	2	7
Cc1cccc(C(=O)OCC(=O)c2c(N)n(CC(C)C)c(=O)n(C)c2=O)c1[N+](=O)[O-]	3	nt	nt	nt	i	nt	-6	-19
Cc1ccc(F)cc1NC(=O)c1ccc(NS(=O)(=O)c2ccc(Br)s2)cc1	16	-8	-4	nt	i	1	6	-2
C=C(C)Cn1c(=O)c2c(nc3n2CCCN3Cc2ccccc2)n(C)c1=O	-7	-10	-2	-20	i	3	4	-2
O=C(Cn1nc(-c2ccccc2)nc1-c1ccccc1)N1CCOCC1	7	1	-21	-7	i	0	-5	-12

structure	CSC inhib	eIF4H FP inh	HIV Env fusion	Yeast UUG start	Rce1 inhib	PABP polyA inh	MT1-MMP act inh	MT1-MMP act inh RFP
CN(C)S(=O)(=O)N(CCN1CCOCC1)Cc1ccccc1F	-5	-1	nt	-7	i	6	-5	2
Nc1cccc2c1C(=O)N(CCOc1ccc(F)cc1)C2=O	3	6	-53	-11	i	3	-6	0
CC(C)C1CC(O)(C2(O)CCCCC2)ON1 (stereo unspecified)	-14	2	nt	-5	i	1	-2	4
Cc1ccc(N/N=C2\CCS(=O)(=O)c3sccc32)cc1	10	4	-15	nt	i	0	-1	5
COc1ccc(C2C(C(C)=O)=C(O)C(=O)N2CCO)c(OC)c1 (stereo unspecified)	-14	-13	nt	-14	i	42	3	7
COc1cc(CNC2CCCCCC2)cc(OC)c1OC	-11	4	-11	8	i	-4	2	0
CN(C)CCCNS(=O)(=O)c1cc(Cl)ccc1Cl	nt	-2	5	nt	i	-3	5	2
O=C(NCCCN1CCCC1)C1CCN(C(=O)c2cc3sccc3n2Cc2ccc(F)cc2)CC1	-13	1	nt	-2	i	-16	-4	0

Three entries from above, sorted by their value in MT1-MMP act inh RFP, high to low.
| SMILES | MT1-MMP act inh RFP |
| --- | --- |
| COc1ccc(C2C(C(C)=O)=C(O)C(=O)N2CCO)c(OC)c1 (stereo unspecified) | 7 |
| CN(C)S(=O)(=O)N(CCN1CCOCC1)Cc1ccccc1F | 2 |
| Nc1cccc2c1C(=O)N(CCOc1ccc(F)cc1)C2=O | 0 |

Continued:
structure	CSC inhib	eIF4H FP inh	HIV Env fusion	Yeast UUG start	Rce1 inhib	PABP polyA inh	MT1-MMP act inh	MT1-MMP act inh RFP
Cc1oc(-c2ccc(Cl)cc2)nc1CN1CCC(C(=O)NCCCN2CCCC2=O)CC1	10	-3	-19	-15	i	0	2	4
CC(=O)/C(C#N)=C1\NC(=O)C(Cc2cc(Cl)ccc2Cl)S1 (stereo unspecified)	72	-2	-2	-5	i	13	-15	-2
O=C(NCc1ccccc1F)Nc1nnc([C@@H]2C[C@H](O)[C@@H](CO)O2)s1	nt	nt	-19	-5	nt	nt	1	4
Fc1ccc(N2CCN(c3ncnc4c3nnn4Cc3ccccc3Cl)CC2)cc1	62	nt	nt	-4	i	nt	-4	-26
O=C(NC1CCc2ccccc21)C1CCN(S(=O)(=O)c2ccc(Cl)cc2)CC1 (stereo unspecified)	-9	-9	nt	nt	i	-6	-5	-5
CNc1ccccc1	-12	nt	nt	-14	nt	nt	0	8
CCCNC(=O)C1(C)CCN(C(=O)c2cc(C)nn2C(C)(C)C)C1 (stereo unspecified)	nt	nt	4	-9	nt	nt	1	4
Cc1ccc(C)c(NC(=O)C2CCCN2C(=O)OC(C)(C)C)c1 (stereo unspecified)	1	-5	nt	-10	i	-10	1	2

Some of the entries above in a different format:
Values in the order – CSC inhib | eIF4H FP inh | HIV Env fusion | Yeast UUG start | Rce1 inhib | PABP polyA inh | MT1-MMP act inh | MT1-MMP act inh RFP
O=C(NCc1ccccc1F)Nc1nnc([C@@H]2C[C@H](O)[C@@H](CO)O2)s1
    nt | nt | -19 | -5 | nt | nt | 1 | 4
Fc1ccc(N2CCN(c3ncnc4c3nnn4Cc3ccccc3Cl)CC2)cc1
    62 | nt | nt | -4 | i | nt | -4 | -26

Next section.
structure	CSC inhib	eIF4H FP inh	HIV Env fusion	Yeast UUG start	Rce1 inhib	PABP polyA inh	MT1-MMP act inh	MT1-MMP act inh RFP
CCN1CCCC1CNC(=O)c1cc(NC(C)=O)c(N(C)C)cc1OC (stereo unspecified)	-5	-7	28	-7	i	-3	2	6
O=C(NNS(=O)(=O)c1ccc(CCCl)cc1)C(O)(c1ccccc1)c1ccccc1	-12	-5	29	13	i	-14	2	-3
COc1ccccc1OCc1ccc(C(=O)N(C)c2ccccc2)o1	-11	2	-6	9	i	-2	0	-3
Cc1cc(NC(=O)CCN2C(=O)C3C4CCC(C4)C3C2=O)cc(C)c1Br (stereo unspecified)	-22	6	nt	-11	i	6	0	-5
Cc1occc1-c1nnc(SCC(=O)NCc2ccc3c(c2)OCO3)n1CC(C)C	1	-7	nt	-9	i	11	-2	0
CCOc1ccc2[nH]c(=O)c(C(c3nnnn3Cc3ccco3)N3CCN(C)CC3)cc2c1 (stereo unspecified)	8	39	13	nt	i	29	-2	1
COc1ccc(Oc2coc3cc(OC(=O)c4cncc(Br)c4)ccc3c2=O)cc1	-15	-17	nt	-18	nt	-2	-2	-2
COCc1ccc(C(=O)N2CCCC(C(=O)c3ccc(Cl)cc3C)C2)o1 (stereo unspecified)	8	1	5	-9	i	2	0	0

structure	CSC inhib	eIF4H FP inh	HIV Env fusion	Yeast UUG start	Rce1 inhib	PABP polyA inh	MT1-MMP act inh	MT1-MMP act inh RFP
Cc1ccc(CN=C(N)Nc2nc(C)cc(C)n2)cc1	56	2	7	-25	i	-3	-4	-11
OC(COc1ccccc1)CN(Cc1ccccc1)CC(O)COc1ccccc1 (stereo unspecified)	9	nt	-22	1	nt	nt	0	-3
CCC(C)c1c(NS(=O)(=O)c2ccc(C)cc2)o[nH]c1=O (stereo unspecified)	nt	nt	-7	-6	nt	nt	3	2
CCO[C@@H]1OC(C(=O)NCc2ccccc2)=C[C@H](C2CCCCC2)[C@H]1CCCO	4	-18	18	0	i	-8	1	-1
Cc1cccc(CCNC(=O)c2cccc(NC3=NC4CS(=O)(=O)CC4S3)c2)c1 (stereo unspecified)	-12	-8	22	-20	i	-5	3	2
O=C(NCCc1nnc2ccc(NCc3cccnc3)nn12)c1ccccc1F	9	-2	-10	nt	i	-16	-3	7
COc1ccccc1/C=C1\SC(=S)N(CC(=O)Nc2nnc(C)s2)C1=O	96*	-4	50	nt	i	2	nt	nt
CC(C)C(NC(=O)C1CCCCC1)C(=O)NCc1ccccn1 (stereo unspecified)	-8	-10	nt	-15	i	-6	2	1
Cc1ccc(S(=O)(=O)N2CCN(CC(=O)Nc3ccccc3Cl)CC2)cc1	nt	nt	-6	-18	nt	nt	-3	-4
Cc1ccc(-n2nc3c(=O)n(CCCC(=O)N4CCC(C(N)=O)CC4)nc(C)c3c2C)cc1	-4	nt	-1	-4	i	nt	2	6
Cc1ccc(S(=O)(=O)/N=C(/NC(=S)Nc2c(C)n(C)n(-c3ccccc3)c2=O)c2ccccc2)cc1	3	-10	-13	nt	i	3	2	2

Rows are unselected; 3% or so of the library scored in one or more.
